Yeast UUG start = modulators of yeast start codon fidelity, primary screen, whole organism, S. cerevisiae, single point, plate reader | S. cerevisiae UUG-firefly luciferase reporter, luminescence/redox ratio | activity score, % at 18.7 µM | 350,000 compounds, 0.13% hits;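 active = replicate mean at a twofold rise or more, about +100% in these data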;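 note: firefly luciferase made from a UUG start codon reports start codon fidelity; reporter light over untreated wells divided by growth signal over untreated wells; some hits fall short of that in this replicate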
* marks the source's active call; other numbers are inactive results; & = joins results of further samples. These rows are one share of the data. The share of hits here may be higher or lower than overall.

SMILES	Yeast UUG start
O=C(C[C@H]1CC[C@@H]2[C@H](COC[C@@H](O)CN2S(=O)(=O)c2ccc(F)cc2)O1)NCCN1CCCCC1	8
C[C@@H](NC(=O)[C@H]1[C@H](CO)[C@H]2Cn3c(ccc(C4=CCCC4)c3=O)[C@H]2N1C)c1ccccc1	14
C[C@@H]1CN([C@@H](C)CO)C(=O)c2cccc(NC(=O)C3CCOCC3)c2O[C@@H]1CN(C)Cc1ccc(-c2ccccc2)cc1	18
C[C@H]1CN([C@@H](C)CO)C(=O)c2cc(NS(C)(=O)=O)ccc2O[C@H]1CN(C)C(=O)Nc1ccccc1	-31
O=C(C[C@H]1CC[C@@H]2[C@H](COC[C@H](O)CN2C(=O)c2cnccn2)O1)NCc1ccccc1	-9
O=C(NC1CCCC1)N1CCCCN2[C@@H](CO)[C@@H](c3ccc(-c4ccncc4)cc3)[C@@H]2C1	3
CC(=O)N1CCCCN2[C@H](CO)[C@H](c3ccc(-c4ccccc4)cc3)[C@@H]2C1	7
COCC#Cc1ccc([C@H]2[C@@H](CO)N3CCCCN(S(=O)(=O)c4ccccc4C)C[C@H]23)cc1	1
CN(C)C(=O)C[C@@H]1C[C@@H]2c3cc(NS(=O)(=O)c4ccccc4)ccc3O[C@@H]2[C@H](CO)O1	-12
O=C(c1ccc(F)cc1)N1CCCCN2[C@H](CO)[C@@H](c3ccc(-c4ccc(F)cc4)cc3)[C@H]2C1	-7
O=C(Nc1ccccc1F)N1CCCCN2[C@@H](CO)[C@H](c3ccc(C#Cc4ccccc4)cc3)[C@@H]2C1	9
COCC(=O)Nc1ccc2c(c1)C(=O)N(C)C[C@@H](OC)[C@@H](C)CN(CC1CC1)[C@@H](C)CO2	-11
CCC(=O)Nc1ccc2c(c1)OC[C@@H](C)N(Cc1ccccc1)C[C@H](C)[C@H](OC)CN(C)C2=O	-9
O=C(C1CC1)N1[C@H](CO)[C@H]2c3ccccc3N(S(=O)(=O)c3ccccc3)C[C@H]21	-4
COc1ccc(S(=O)(=O)Nc2cccc3c2O[C@H](CN(C)S(=O)(=O)c2c(C)noc2C)[C@@H](C)CN([C@H](C)CO)C3=O)cc1	4
CCN(C[C@@H]1N[C@@H](CO)[C@@H]1c1ccc(-c2cccc(C#N)c2)cc1)C(=O)COC	-8
C[C@H](CO)N1C[C@H](C)[C@@H](CN(C)S(=O)(=O)c2ccccc2)Oc2ccc(NC(=O)CCCN(C)C)cc2CC1=O	-2
CN(C)C(=O)c1cccc(-c2ccc([C@H]3[C@@H](CO)N4CCCCN(Cc5cccnc5)C[C@H]34)cc2)c1	-8
CC(=O)N1CC[C@@H]2[C@@H](CO)Nc3ccc(-c4cccc(F)c4)cc3[C@@H]21	4
OC[C@H]1Nc2ccc(-c3cccc(F)c3)cc2[C@H]2[C@@H]1CCN2Cc1ccncc1	-17

Among those listed so far, seven contain sulfur.
SMILES	Yeast UUG start
O=C(C[C@H]1CC[C@@H]2[C@H](COC[C@@H](O)CN2S(=O)(=O)c2ccc(F)cc2)O1)NCCN1CCCCC1	8
C[C@H]1CN([C@@H](C)CO)C(=O)c2cc(NS(C)(=O)=O)ccc2O[C@H]1CN(C)C(=O)Nc1ccccc1	-31
COCC#Cc1ccc([C@H]2[C@@H](CO)N3CCCCN(S(=O)(=O)c4ccccc4C)C[C@H]23)cc1	1
CN(C)C(=O)C[C@@H]1C[C@@H]2c3cc(NS(=O)(=O)c4ccccc4)ccc3O[C@@H]2[C@H](CO)O1	-12
O=C(C1CC1)N1[C@H](CO)[C@H]2c3ccccc3N(S(=O)(=O)c3ccccc3)C[C@H]21	-4
COc1ccc(S(=O)(=O)Nc2cccc3c2O[C@H](CN(C)S(=O)(=O)c2c(C)noc2C)[C@@H](C)CN([C@H](C)CO)C3=O)cc1	4
C[C@H](CO)N1C[C@H](C)[C@@H](CN(C)S(=O)(=O)c2ccccc2)Oc2ccc(NC(=O)CCCN(C)C)cc2CC1=O	-2

The results go on:
SMILES	Yeast UUG start
CC(C)NC(=O)Nc1cccc2c1O[C@H](CN(C)C(=O)NC(C)C)[C@@H](C)CN([C@@H](C)CO)C2=O	-15
CC(C)[C@@H](C)NC(=O)N(C)C[C@@H]1OCc2ccccc2-c2c(n(C)c3ccccc23)C(=O)N([C@@H](C)CO)C[C@H]1C	7
CN1C[C@H]2[C@@H](c3ccccc31)[C@@H](CO)N2C(=O)Nc1ccc(F)cc1	22
C[C@@H](O)C#Cc1ccc([C@@H]2[C@H](CO)N3CCCCN(C(=O)c4ccncc4)C[C@@H]23)cc1	11
C[C@H](CO)N1C[C@H](C)[C@H](CN(C)Cc2ccc3c(c2)OCO3)Oc2c(NS(=O)(=O)c3ccc(Cl)cc3)cccc2C1=O	-3
COc1cccc(CNC(=O)[C@@H]2[C@@H](CO)[C@@H]3Cn4c(cccc4=O)[C@H]2N3C(=O)C2CC2)c1	-16
C[C@H](CO)N1C[C@H](C)[C@@H](CN(C)S(C)(=O)=O)Oc2ccc(NC(=O)Nc3ccc(F)cc3)cc2CC1=O	13
COc1cccc(CN2CCCCN3[C@H](CO)[C@@H](c4ccc(C#Cc5cccnc5)cc4)[C@H]3C2)c1	15
COc1cccc(S(=O)(=O)N2CC[C@@H]3[C@@H](CO)Nc4ccc(Br)cc4[C@@H]32)c1	-8
C[C@@H]1CN([C@@H](C)CO)C(=O)c2cccc(NC(=O)c3ccncc3)c2O[C@H]1CN(C)Cc1ccc(-c2ccccc2)cc1	3
Cc1ccc(S(=O)(=O)Nc2ccc3c(c2)C(=O)N([C@@H](C)CO)C[C@@H](C)[C@@H](CN(C)C)O3)cc1	-5
C[C@H](CO)N1C[C@H](C)[C@@H](CN(C)S(=O)(=O)c2cn(C)cn2)Oc2c(NC(=O)C3CCOCC3)cccc2C1=O	-10
COc1ccccc1NC(=O)N1CCCCN2[C@H](C1)[C@H](c1ccc(-c3cccc(F)c3)cc1)[C@@H]2CO	0
O=C(C[C@@H]1CC[C@@H]2[C@H](COC[C@@H](O)CN2Cc2ccccc2)O1)NCCCN1CCOCC1	-18
CC(C)NC(=O)N(C)C[C@@H]1Oc2c(NC(=O)c3ccncc3)cccc2C(=O)N([C@H](C)CO)C[C@H]1C	-19
O=C(c1cccnc1)N1CC[C@H]2[C@H](CO)Nc3ccc(-c4cccc(F)c4)cc3[C@H]21	-12
O=C(c1ccccn1)N1C[C@H]2[C@@H](c3ccccc31)[C@@H](CO)N2C(=O)C1CCOCC1	-13
CN1C(=O)c2cc(NC(=O)c3cnccn3)ccc2OC[C@@H]2O[C@H](CC(=O)N[C@@H]3CCN(Cc4ccccc4)C3)CC[C@H]21	-2
COc1ccc(CNC(=O)C[C@@H]2C[C@H]3c4cc(NS(=O)(=O)c5ccc(F)cc5)ccc4O[C@H]3[C@@H](CO)O2)cc1	8
COc1cccc(-c2ccc([C@H]3[C@@H](CO)N4CCCCN(CC5CC5)C[C@H]34)cc2)c1	-13
CO[C@H]1CN(C)C(=O)c2cc(NC(=O)NC3CCCCC3)ccc2OC[C@@H](C)NC[C@@H]1C	-5
Cc1cccc(S(=O)(=O)N2CC[C@H]3[C@@H](CO)N(C)c4ccc(-c5ccccc5F)cc4[C@H]32)c1	-14
C[C@H](CO)N1C[C@H](C)[C@@H](CN(C)C(=O)Nc2ccccc2)Oc2c(NS(C)(=O)=O)cccc2C1=O	-10&-15
COc1cccc(-c2ccc3c(c2)[C@@H]2[C@@H](CCN2C(=O)Cc2ccccc2)[C@@H](CO)N3)c1	-7
CC(C)NC(=O)N1CCCCN2[C@H](C1)[C@@H](c1ccc(C#C[C@H](C)O)cc1)[C@@H]2CO	4
C[C@H](CO)N1C[C@H](C)[C@H](CN(C)Cc2ccc(C(F)(F)F)cc2)Oc2c(NC(=O)C3CCCCC3)cccc2C1=O	-5
COCC(=O)Nc1ccc2c(c1)C(=O)N(C)C[C@@H](OC)[C@@H](C)CN(C(=O)c1ccccn1)[C@H](C)CO2	-19
CCCNC(=O)C[C@@H]1C[C@H]2c3cc(NC(=O)C4CCC4)ccc3O[C@H]2[C@H](CO)O1	-1
COc1ccc(-c2ccc([C@H]3[C@@H](CO)N4CCCCN(S(=O)(=O)c5cccs5)C[C@@H]34)cc2)cc1	4
O=C(Nc1ccc(Cl)cc1)N1C[C@H]2[C@@H](c3ccccc31)[C@@H](CO)N2CC1CCCCC1	-9
C[C@@H]1CN([C@@H](C)CO)C(=O)c2cccc(NC(=O)Nc3ccc4c(c3)OCO4)c2O[C@H]1CN(C)Cc1ccc(Cl)c(Cl)c1	7
CN(C)C(=O)c1ccc(-c2ccc3c(c2)[C@H]2[C@H](CCN2C(=O)c2cnccn2)[C@H](CO)N3)cc1	-3
COc1ccc(NC(=O)N(C)C[C@H]2Oc3ccc(NC(=O)C4CCCCC4)cc3C(=O)N([C@@H](C)CO)C[C@H]2C)cc1	14
CCC(=O)N1C[C@H](C)[C@H](OC)CN(C)C(=O)c2cc(NC(=O)C3CCCCC3)ccc2OC[C@@H]1C	-1
CC(=O)N1CCCCN2[C@H](CO)[C@@H](c3ccc(-c4cccc(C(=O)N(C)C)c4)cc3)[C@@H]2C1	16
C[C@@H]1CN([C@H](C)CO)C(=O)Cc2cc(NS(=O)(=O)c3ccc(Cl)cc3)ccc2O[C@H]1CN(C)Cc1ccncc1	-2
Cn1cnc(S(=O)(=O)N2CC[C@@H]3[C@H](CO)Nc4ccc(C#Cc5ccccc5)cc4[C@@H]32)c1	0
CN(C)C(=O)C[C@H]1C[C@H]2c3cc(NC(=O)c4ccc5c(c4)OCO5)ccc3O[C@H]2[C@@H](CO)O1	-3
CO[C@H]1CN(C)C(=O)c2cc(NC(C)=O)ccc2OC[C@H](C)N(Cc2ccncc2)C[C@@H]1C	-7
O=C(C[C@H]1CC[C@H]2[C@@H](COC[C@@H](O)CN2C(=O)Nc2cccc(F)c2)O1)NCCCN1CCOCC1	-8
C[C@@H]1CN([C@@H](C)CO)C(=O)c2cc(NS(C)(=O)=O)ccc2O[C@@H]1CN(C)C	-8
C[C@H]1CN([C@@H](C)CO)C(=O)c2c(c3ccccc3n2C)-c2ccccc2CO[C@H]1CN(C)S(C)(=O)=O	3
O=C(CN1CCOCC1)N1CCCCN2[C@@H](CO)[C@H](c3ccc(Br)cc3)[C@@H]2C1	-7
O=C(C[C@@H]1CC[C@H]2NC[C@@H](O)COC[C@@H]2O1)Nc1ccccc1	-10
CC(C)NC(=O)N1C[C@@H]2[C@H](c3ccccc31)[C@H](CO)N2C(=O)Nc1cccc(F)c1	-2
O=C(C1CCC1)N1C[C@@H]2[C@H](c3ccccc31)[C@@H](CO)N2C(=O)c1ccccc1F	29
C[C@@H]1CN([C@H](C)CO)C(=O)c2cccc(NS(=O)(=O)c3cn(C)cn3)c2O[C@@H]1CN(C)Cc1ccc(-c2ccccc2)cc1	4
CCC(=O)Nc1ccc2c(c1)C(=O)N(C)[C@H]1CC[C@@H](CC(=O)O)O[C@@H]1CO2	-13
CN(C)CC#Cc1ccc([C@H]2[C@@H](CO)N3CCCCN(C(=O)C4CCC4)C[C@H]23)cc1	-5
C[C@H](CO)N1C[C@H](C)[C@H](CN(C)C(=O)Nc2ccc(F)cc2)Oc2ccc(NC(=O)Cc3cn(C)c4ccccc34)cc2C1=O	11
CC(=O)N1[C@H](CO)[C@@H](c2ccc(-c3ccc(F)cc3)cc2)[C@@H]1CNC(=O)C1CC1	10
O=C(Nc1cc(F)ccc1F)N1C[C@H]2[C@@H](c3ccccc31)[C@H](CO)N2CC1CCCC1	-13
COCC(=O)Nc1ccc2c(c1)[C@H]1C[C@@H](CC(=O)NCc3ccccc3OC)O[C@@H](CO)[C@H]1O2	-9
C[C@H](CO)N1C[C@H](C)[C@@H](CN(C)S(=O)(=O)c2cn(C)cn2)Oc2c(NC(=O)NC3CCCCC3)cccc2C1=O	-1
O=C(c1ccc(F)cc1)N1CCCCN2[C@H](CO)[C@H](c3ccc(-c4ccccc4)cc3)[C@@H]2C1	4
CCCN1[C@@H]2c3ccc(/C=C/c4ccccc4)c(=O)n3C[C@H]1[C@H](CO)[C@H]2C(=O)NCc1ccccn1	-7
CN(C)C(=O)c1ccc(-c2ccc3c(c2)[C@@H]2[C@@H](CCN2C(=O)c2ccccc2F)[C@H](CO)N3)cc1	3
CN(C)C(=O)C[C@H]1CC[C@H]2[C@@H](COc3ccc(NC(=O)C4CC4)cc3C(=O)N2C)O1	-5
Cc1noc(C)c1NC(=O)N(C)C[C@@H]1Oc2c(NC(=O)C3CCCCC3)cccc2C(=O)N([C@H](C)CO)C[C@@H]1C	-11
C[C@H]1CN([C@@H](C)CO)C(=O)c2cccc(NC(=O)C3CCOCC3)c2O[C@@H]1CN(C)S(=O)(=O)c1ccc(Cl)cc1	17

In another format: entries from further up.
Yeast UUG start	canonical_smiles
4	C[C@@H]1CN([C@H](C)CO)C(=O)c2cccc(NS(=O)(=O)c3cn(C)cn3)c2O[C@@H]1CN(C)Cc1ccc(-c2ccccc2)cc1
-10	O=C(C[C@@H]1CC[C@H]2NC[C@@H](O)COC[C@@H]2O1)Nc1ccccc1
-5	CN(C)C(=O)C[C@H]1CC[C@H]2[C@@H](COc3ccc(NC(=O)C4CC4)cc3C(=O)N2C)O1
17	C[C@H]1CN([C@@H](C)CO)C(=O)c2cccc(NC(=O)C3CCOCC3)c2O[C@@H]1CN(C)S(=O)(=O)c1ccc(Cl)cc1

Next part:
SMILES	Yeast UUG start
CN1c2ccc(-c3cccc(C#N)c3)cc2[C@H]2[C@H](CCN2C(=O)CN2CCOCC2)[C@@H]1CO	15
C[C@@H]1CN([C@@H](C)CO)C(=O)c2cc(NC(=O)Nc3ccc(F)cc3)ccc2O[C@@H]1CN(C)S(=O)(=O)c1ccccc1	-13
CO[C@@H]1CN(C)C(=O)c2cc(NC(=O)C3CCOCC3)ccc2OC[C@@H](C)N(Cc2nccs2)C[C@@H]1C	2
CC(=O)N1CCCCN2[C@H](CO)[C@H](c3ccc(-c4ccncc4)cc3)[C@H]2C1	11
O=C(C[C@H]1C[C@@H]2c3cc(NC(=O)Nc4ccccc4)ccc3O[C@@H]2[C@@H](CO)O1)NCc1cccc(F)c1	-4
